RN4220 kill: kills Staphylococcus aureus RN4220; inhibition, % (concentration not given with the values); S. aureus RN4220 growth, OD600, 16 h; 330,000 compounds, 0.33% hits;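 active means z-score of -3 or lower and OD600 up to 0.18 on both plates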;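 further: plate controls were untreated cells for no effect and reference antibiotic for full effect; stock transfer was 100 nL into about 80 µL; one replicate is shown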
Sa ugtP lethal: growth inhibition of S. aureus ugtP deletion strain; 330,000 compounds, 0.54% hits; growth inhibition, % (concentration not given with the values); AID 1259309; S. aureus RN4220 ugtP deletion, OD600 growth, 16 h; some inactives read as strong as hits;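 active means z-score under -3 and OD600 up to 0.15 on both plates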;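 further: plate controls were untreated wells for no effect and antibiotic for full effect; wells of about 80 µL received 100 nL stock; the first replicate is given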
Mtb hypoxia inh: reduces hypoxia-regulated biosensor signal in M. tuberculosis; M. tuberculosis hypoxia-regulated fluorescent reporter, fluorescence; fluorescence inhibition, % (test concentration not listed); 300,000 compounds, 0.1% hits; AID 1159583;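 active means 35 to 45% if threefold the growth effect, above 45% if 1.5-fold the growth effect; inactive means the rest, general growth blockers included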;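 further: wells of about 50 µL received 100 nL stock; 0% = vehicle wells and 100% = reference inhibitor wells; whole bacteria with a GFP reporter of the hypoxia response; strong numbers were not always called active; many hits fall short of the cut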
Autofluor counter: counter-screen for toxin protease inhibitors: compound fluorescence; compound autofluorescence counterscreen, microsphere flow cytometry; active compounds read high; fluorescence intensity (concentration not given with the values); 360,000 compounds, 3.1% hits; AID 624483;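 active means at least 3 SD above the mean of all compounds, about 16000 in these data; inconclusive means too few beads counted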;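 further: 100 nL of 1 mM stock went into each well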
BJeLR lethal: kills HRASV12-expressing BJeLR cells; BJeLR (HRASV12) viability, CellTiter-Glo ATP luminescence, 48 h; reference of the scale not given here; inhibition, % (no concentration beside the values); 300,000 compounds, 0.17% hits; AID 1554;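 active means replicate mean above 50%; inconclusive means above 50% but judged a plate artefact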;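 further: 50 nL library stock added to about 25 µL; numbers are from one replicate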
PrP UTR inh: suppresses PrP 5' UTR mRNA reporter expression. cell-based PrP 5' UTR mRNA reporter, plate reader. inhibition, % (no concentration beside the values). 340,000 compounds, 0.35% hits. AID 488862;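 active means every replicate at 50% or more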;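 further: 0 = median of the neutral control wells; tested in H4 reporter cells; numbers are from one replicate; inactives centre near -14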
Mtb hypoxia inh growth: also measured in Mtb hypoxia inh; calls as there; growth inhibition, %; measured here: M. tuberculosis growth (absorbance);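 0% = vehicle and 100% = reference antibiotic; read after six days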
* = called active by the depositor; ? = inconclusive; . = not tested or not shown.

SMILES	RN4220 kill	Sa ugtP lethal	Mtb hypoxia inh	Mtb hypoxia inh growth	Autofluor counter	BJeLR lethal	PrP UTR inh
CCOC(=O)c1nn(-c2cccc(Cl)c2)c2nc(Nc3ccccc3)cc(=O)n12	3.1	-27	11	7	8717	-4	-32
C/C(=C\c1ccccc1)CN1CCC(C(=O)N2CCC(C)CC2)CC1	1.0	5	.	.	3491	16	-7
CC[C@@]12C(=O)N(c3cccc(F)c3)C(=O)N1[C@H](c1ccc(OC)cc1)[C@@H]1C(=O)N(C(C)(C)C)C(=O)[C@@H]12	.	.	.	.	3510	-3	-15
COc1ccc(NC(=O)c2ccc3c(c2)n(C)c(=O)n3C)cc1	1.2	-3	-7	6	5272	6	-24
CCOc1ccc(C=NNc2cc(C)nc(N3CCOCC3)n2)cc1	3.9	-4	11	5	.	.	.
COC(=O)C1=C(C)N(Cc2ccccc2)C(=NCC(C)C)NC1c1cccc(C(F)(F)F)c1 (stereo unspecified)	-4.1	-4	8	17	.	.	.
COc1cccc(OC)c1C(=O)NC(=S)Nc1cc(-c2nc3ccccc3[nH]2)ccc1Cl	-8.2	-21	-13	1	2634	0	-9
Cc1sc2ncnc(N3CCN(Cc4ccccc4)CC3)c2c1-c1ccc(F)cc1	-0.5	2	7	13	5988	-3	-8
Cc1c(NC(=O)C(=O)/C=C(\O)c2ccc(Cl)cc2)c(=O)n(-c2ccccc2)n1C	.	.	.	.	2093	-16	0
O=C(Nc1cccc(S(=O)(=O)N2CCOCC2)c1)c1cn(-c2ccccc2)nc1-c1ccc(F)cc1	-1.2	4	6	-5	2096	-6	-19
CCOC(=O)c1c(NC(=O)c2ccc(S(=O)(=O)N3CCOCC3)cc2)sc2c1CCN(C(C)C)C2	2.1	4	3	3	4690	-4	-11
COc1ccc(NC(=O)CSc2nnnn2C2CCCC2)cc1	5.2	8	10	10	4807	1	-2
Cn1c2ccccc2c2cc(/C=N/NC(=O)c3ccccc3F)ccc21	.	.	.	.	5473	-2	-21
COc1cc([N+](=O)[O-])ccc1Nc1nc(C)cc(C)n1	9.5	9	14	7	4172	-1	-21
O=C(NCCOc1ccccc1)C1CCC(=O)N(CCc2ccc(Cl)cc2)C1 (stereo unspecified)	-4.7	7	3	11	7393	0	-30
Cc1ccsc1C(=O)N(C)C1CCS(=O)(=O)C1 (stereo unspecified)	4.9	6	7	7	5841	.	4
NC(=O)[C@@H]1CCCN1Cc1c(C(=O)N2CCc3ccccc3C2)nc2ccc(Cl)cn12	3.6	2	8	5	5162	-5	-5
COc1cc(-c2cc(C(=O)OCC(=O)Nc3ccc4c(c3)OCO4)c3ccccc3n2)cc(OC)c1OC	3.8	4	-5	4	2192	-1	-15
Cc1sc2nc(CSCC(=O)NC(C)(C)C)[nH]c(=O)c2c1C	-1.2	7	10	4	3557	-1	-29
CCOC(=O)N1CCN(C(=O)C(=O)NNC(=O)COc2ccc(Cl)cc2)CC1	0.4	-1	-5	-8	2389	2	-6
Cc1ccc2c(=O)cc(C(=O)NC3CCS(=O)(=O)C3)oc2c1 (stereo unspecified)	-0.6	1	5	4	5270	7	-10
Cc1cc(C)n(-c2ccc(NC(=O)C3CCCCN3C(=O)c3cc(C)oc3C)cc2)n1 (stereo unspecified)	3.3	0	-5	6	6049	-5	-22
CNCC(O)CN(c1ccccc1)c1ccccc1 (stereo unspecified)	6.5	4	14	7	4309	7	-18
CCC(=O)Nc1ccc2nc(SCC(=O)N3CCOCC3)sc2c1	4.5	-3	5	5	2500	4	-20
Cc1sc2c(c1C)c(=O)n(-c1ccccc1)c1nncn21	5.6	4	-3	0	11802	-4	-34
CCCCNC(=O)CSc1nc2ccccc2c(=O)n1CC1COc2ccccc2O1 (stereo unspecified)	15	10	9	1	?	7	-12
O=C(COC(=O)c1cccc(Cl)c1Cl)NCc1cccs1	3.0	5	12	7	3739	.	-17
O=C(CSc1nnnn1Cc1ccccc1)Nc1cccc(F)c1	2.9	8	10	-1	4306	3	-21
OCCC1CN(Cc2ccc3nsnc3c2)CCN1CCc1ccccc1 (stereo unspecified)	-0.4	4	-11	-12	2018	.	-6
COc1ccc(OC)c(NC(=O)c2cc3ccccc3o2)c1	11	4	.	.	3336	2	-19
O=C(c1ccco1)N1CCN(C(=O)C2(S(=O)(=O)c3ccc(Cl)cc3)CC2)CC1	2.5	9	0	2	10872	-3	-6
C=CCn1c(N)c(C(=O)N2CCN(C)CC2)sc1=S	1.1	8	7	4	22789*	-1	-3
O=C(O)c1cc([N+](=O)[O-])ccc1NCCO	3.4	-2	-5	7	2542	-8	-3
O=C(Cn1c(=O)oc2cc(S(=O)(=O)N3CCCC3)ccc21)N1CCN(c2ccccc2F)CC1	0.9	13	10	7	5098	20	-21
O=C(N/N=C/c1coc2ccccc2c1=O)c1ccccc1	.	.	.	.	5253	-1	-17
Cc1ccc2nsnc2c1S(=O)(=O)N1CCCC1C(=O)O (stereo unspecified)	0.0	6	0	0	3505	-4	-22
O=C(Cc1ccc2c(c1)OCCO2)N1CCN(S(=O)(=O)c2ccccc2C(F)(F)F)CC1	0.1	7	-4	2	2272	-4	-3
Cn1c(CN2CCOCC2)nnc1SCC(=O)Nc1ccc([N+](=O)[O-])cc1O	0.5	-1	-2	-2	3609	13	5
O=C(CSc1ncnc2c1cnn2Cc1ccccc1)Nc1ccc2c(c1)OCCO2	8.1	10	1	13	3312	-8	-37
COc1ccc(N2CCN(C(=O)COc3ccc4c(C)c(C)c(=O)oc4c3C)CC2)cc1	0.3	-4	10	2	5703	4	-2

A portion from further up, as a working copy:
SMILES	RN4220 kill	Sa ugtP lethal	Mtb hypoxia inh	Mtb hypoxia inh growth	Autofluor counter	BJeLR lethal	PrP UTR inh
Cc1sc2c(c1C)c(=O)n(-c1ccccc1)c1nncn21	5.6	4	-3	0	11802	-4	-34
CCCCNC(=O)CSc1nc2ccccc2c(=O)n1CC1COc2ccccc2O1 (stereo unspecified)	15	10	9	1	?	7	-12
O=C(COC(=O)c1cccc(Cl)c1Cl)NCc1cccs1	3.0	5	12	7	3739	.	-17
O=C(CSc1nnnn1Cc1ccccc1)Nc1cccc(F)c1	2.9	8	10	-1	4306	3	-21
OCCC1CN(Cc2ccc3nsnc3c2)CCN1CCc1ccccc1 (stereo unspecified)	-0.4	4	-11	-12	2018	.	-6
COc1ccc(OC)c(NC(=O)c2cc3ccccc3o2)c1	11	4	.	.	3336	2	-19
O=C(c1ccco1)N1CCN(C(=O)C2(S(=O)(=O)c3ccc(Cl)cc3)CC2)CC1	2.5	9	0	2	10872	-3	-6
C=CCn1c(N)c(C(=O)N2CCN(C)CC2)sc1=S	1.1	8	7	4	22789*	-1	-3
O=C(O)c1cc([N+](=O)[O-])ccc1NCCO	3.4	-2	-5	7	2542	-8	-3
O=C(Cn1c(=O)oc2cc(S(=O)(=O)N3CCCC3)ccc21)N1CCN(c2ccccc2F)CC1	0.9	13	10	7	5098	20	-21
O=C(N/N=C/c1coc2ccccc2c1=O)c1ccccc1	.	.	.	.	5253	-1	-17
Cc1ccc2nsnc2c1S(=O)(=O)N1CCCC1C(=O)O (stereo unspecified)	0.0	6	0	0	3505	-4	-22
O=C(Cc1ccc2c(c1)OCCO2)N1CCN(S(=O)(=O)c2ccccc2C(F)(F)F)CC1	0.1	7	-4	2	2272	-4	-3

Next section:
SMILES	RN4220 kill	Sa ugtP lethal	Mtb hypoxia inh	Mtb hypoxia inh growth	Autofluor counter	BJeLR lethal	PrP UTR inh
CC(=O)Nc1ccc(C=C(C(C)=O)C(C)=O)cc1	3.6	16	15	1	3775	9	-13
CCN(CC)CCNC(=O)c1ccc2c(c1)ncn2C1CCCCC1	1.5	5	-2	5	4258	-6	-33
CC1SC(=S)N(c2ccc(N(C)C)cc2)C1=O (stereo unspecified)	1.5	8	-8	4	3453	-6	-6
Nc1no[n+]([O-])c1-c1ccccc1	3.3	4	14	14	4260	6	-17
O=C(Nc1nnc(-c2ccccc2Cl)o1)c1cccnc1	12	-12	-3	-7	16013	12	-17
O=C(COC(=O)/C=C/c1ccccc1)NCc1ccc(Cl)cc1	7.4	-1	11	6	2411	17	-29
N/N=c1\sc2ccccc2n1-c1ccccc1	.	.	.	.	5015	1	-9
C/C(=N\NC(=O)c1nnn(-c2nonc2N)c1-c1ccc2c(c1)OCO2)c1ccc(F)cc1	.	.	.	.	6527	-3	-9
CCNc1nc(NCC)n2c(SCC(=O)Nc3ccccc3[N+](=O)[O-])nnc2n1	-0.4	2	2	1	2059	-1	-12
O=C(CNC(=O)Cc1ccccc1)NCc1cccc(C(F)(F)F)c1	0.4	7	-3	2	3666	-4	-21
O=C(c1ccc(=O)[nH]n1)N1CCc2ccccc2C1	3.3	1	-9	7	3652	4	-19
CCN(CC(=O)Nc1cc(OC)ccc1OC)Cc1nc2ccccc2c(=O)[nH]1	1.7	4	-8	9	4226	-8	-30
CC(=NNC(=S)NCc1ccccc1)c1cccs1	3.8	0	6	12	.	.	.
Cc1ccc2[nH]c(=O)c(CN(C(=O)c3cccs3)c3ccccc3)cc2c1	0.8	-7	0	5	10006	-8	-8
C#CCOCCOCCOCCNc1nc(N2CCOCC2)nc(N2CCN(C(=O)[C@H](Cc3ccc(O)cc3)n3cc([C@@H](N)C(C)CC)nn3)CC2)n1 (stereo partly specified)	.	.	.	.	2658	-5	-6
Cc1c(NC(=S)NC(=O)c2cc3ccccc3o2)c(=O)n(-c2ccccc2)n1C	4.3	14	2	-3	2603	6	-21
Cn1cccc1Cc1nnc(SCC(N)=O)n1CCc1ccccc1	-2.1	4	.	.	6114	-16	-13
COc1ccc(C2=NOC(Cn3nc(C(=O)NCC4CC4)cc3-c3ccccc3)C2)cc1 (stereo unspecified)	-4.4	-2	-7	2	2976	-8	-31
COc1ccc(Cl)cc1C(=O)N1CCN=C1SC	2.7	-1	.	.	5621	-3	-67
COC(=O)Cc1c(O)ccn(Cc2ccc(F)cc2)c1=O	0.4	2	.	.	4099	4	1
C=CCn1c(SCC(=O)c2ccc(O)c(O)c2)nnc1-c1ccc(C)cc1	7.2	7	5	-5	3905	.	0
CN(C)c1ccc(P(=O)(CC(=O)N/N=C/c2ccc(C#N)cc2)OCCCl)cc1 (stereo unspecified)	.	.	.	.	3432	2	-23
CC1=NN(c2ccc([N+](=O)[O-])cc2)C(c2ccccc2)C1 (stereo unspecified)	-1.7	28	0	-4	3182	6	-20
CN1C/C(=N\S(=O)(=O)c2ccccc2)N(C)C1=O	.	.	.	.	2569	-19	-5
Cn1cc(S(=O)(=O)Nc2ccc(Cl)cc2Cl)c(=O)n(C)c1=O	-4.0	-10	4	16	4070	8	-7
O=C(COc1ccc(F)cc1Br)N1CCc2ccccc21	-3.2	-3	7	3	4166	-3	-106
COc1ccc(CC(=O)N2CCN(c3ccccc3OC)CC2)cc1OC	5.0	4	2	-3	3050	-7	2
COc1ccc(OCc2ccc(C=NNC(=O)c3sccc3C)o2)cc1	2.5	-2	5	9	.	.	.
COc1ccc2nc(N3C(=O)CC(Cc4cc(C)cc(C)c4)C3=O)sc2c1 (stereo unspecified)	-7.0	4	0	6	3159	0	-16
CCOc1[nH]n(-c2ccccc2)c(=O)c1C=NCc1ccncc1	1.7	7	9	5	2276	-8	-11
CCN(CC)C(=O)/C(=C\c1cccc([N+](=O)[O-])c1)NC(=O)c1ccco1	4.9	-1	4	5	10178	-5	-26
c1ccc(Cn2nnc3c(N4CCCC4)ncnc32)cc1	3.4	10	9	6	16477*	4	-8
Cc1ccc(C)c2nc(Cl)c(C3NC(=O)c4ccccc4N3)cc12 (stereo unspecified)	1.4	5	15	8	4259	-6	-3
COc1ccc(C(CNC(=O)c2cccn2C)N2CCOCC2)cc1 (stereo unspecified)	6.5	11	-6	1	8204	.	-11
